Screening data from PubChem BioAssay.
UCH37 inh: inhibitors of human UCH37 deubiquitinase, primary screen, biochemical, Ub-AMC cleavage, fluorescence. Ubiquitin carboxyl-terminal hydrolase isozyme L5 (Homo sapiens), Q9Y5K5. purified proteasome/UCH37. inhibition, % (no concentration beside the values). actives 0.33% (n = 330,000). AID 588478, 2011;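 active = mean of two replicates above 20%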;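 note: 0% = compound-free wells with enzyme and 100% = wells lacking proteasome; stock transfer was 100 nL into about 20 µL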
Target sequence (Q9Y5K5 whole entry, looked up): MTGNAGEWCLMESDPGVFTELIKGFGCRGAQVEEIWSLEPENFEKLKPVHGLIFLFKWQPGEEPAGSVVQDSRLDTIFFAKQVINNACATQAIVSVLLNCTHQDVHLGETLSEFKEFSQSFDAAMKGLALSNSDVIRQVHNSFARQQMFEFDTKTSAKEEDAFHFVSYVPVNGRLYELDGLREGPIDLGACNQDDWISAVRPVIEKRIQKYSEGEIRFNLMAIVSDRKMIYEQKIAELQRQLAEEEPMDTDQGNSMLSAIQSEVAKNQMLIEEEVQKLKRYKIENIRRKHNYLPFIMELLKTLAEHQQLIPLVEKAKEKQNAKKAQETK
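system = Proteasome-associated human UCH37 deubiquitinase | amount = 0.15 nM proteasome as dispensed | medium = pH 7.4 Tris-HCl (50 mM) with ovalbumin, ATP-MgCl2, DTT | incubation = 30 min preincubation with enzyme, 25 min cleavage at room temperature | detection = AMC fluorescence 355/460 nm | read-out basis = percent inhibition | controls = no-proteasome and no-compound wells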
Ecoli growth: E. coli growth inhibition, primary screen, OD600; OD600 absorbance (no concentration beside the values); Escherichia coli growth, 23 h; stronger effect = lower value; AID 1053175, 2014; actives 0.21% (n = 330,000);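 active = OD600 absorbance below the run mean of sample wells minus 3.6 SD, in any replicate, cut at about 0.56 in these data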;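 note: stock transfer was 300 nL into about 60 µL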
A1 inh: caspase 3/7 activation in MEF A1-2A-BIM cells, primary screen, A1 inhibitor project, cell-based, luminescence, HTS. caspase activation, % (no concentration beside the values). actives 0.066% (n = 330,000). Caspase-Glo 3/7 luminescence, 3 h; percent of clofoctol response, vehicle zero. AID 2462, 2010;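 active = over half of replicate activation scores above 10%, or exactly half above 10 with the replicate mean above 10; inconclusive = replicate mean below 10 yet half the replicates above 10; inactive = over half of replicates below 10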;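 note: wells of about 30 µL received 50 nL stock; many hits fall short of the cut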
Beta cell apopt: inhibitors of cytokine-induced beta cell apoptosis, primary screen, luminescence; actives 0.8% (n = 300,000); INS-1E cytokine-induced death, ATP luminescence, 48 h; percent of positive-control rescue, neutral wells zero; protection from apoptosis, % (no concentration beside the values);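 active = all replicates at 75% or more, or half of them and the mean; inconclusive = half reach 75% but not the mean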;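 note: 0% = cytokine-treated negative control wells and 100% = positive control rescue; higher means more ATP so stronger rescue from cytokine killing; wells of about 40 µL received 100 nL stock; the first replicate is given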
T cruzi inh: inhibitors of intracellular T. cruzi growth, primary screen, luminescence, NIH3T3 host cells; T. cruzi beta-gal in NIH3T3, 90 h; inhibition, % (concentration not given with the values); actives 1.4% (n = 300,000); AID 1885, 2009;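 active = mean inhibition across valid replicates above about 55%, limit read from the data; inconclusive = mean below that limit but half or more replicates reach it; inactive = mean below it, under half of replicates reach it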;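 note: signal also drops with host cell toxicity which is not excluded here; 0% = plate median of DMSO wells and 100% = zero luminescence signal; higher percent means less beta-gal luminescence so fewer parasites; stock transfer was 50 nL into about 50 µL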
rRNA inh HTS: reduced GFP signal of wild-type E. coli, primary screen, bacterial rRNA inhibitor project, GFP/RFP fluorescence, OD600, single point; AID 720706, 2013; E. coli WT GFP vs humanized-ribosome RFP mutants, 24 h; stronger effect = lower value; DMSO median 0, no signal -100; actives 1.6% (n = 350,000); GFP signal change (wild-type ribosome), % (no concentration beside the values);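 active = significant combined selectivity score with lowered wild-type GFP, culture density cut under 30%, mutant RFP and density less affected; inactive = any of these conditions unmet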; note: one replicate is shown; some compounds called inactive have numbers as strong as hits
FGF22 binding: binders of human FGF22 protein, primary screen, FGF22 synaptogenesis inhibitor project, biophysical, thermal shift, single point; recombinant FGF22 thermal shift, SYPRO orange fluorescence; percent of sucrose octasulfate shift, DMSO zero; Fibroblast growth factor 22 (Homo sapiens), Q9HCT0; calls only at 9.99 µM; actives 1.5% (n = 340,000); AID 651658, 2012;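 active = melting point raised past a set limit in the mean and every replicate; inconclusive = no clear call; three in four hits are not shown here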
Target sequence (Q9HCT0 whole entry, looked up): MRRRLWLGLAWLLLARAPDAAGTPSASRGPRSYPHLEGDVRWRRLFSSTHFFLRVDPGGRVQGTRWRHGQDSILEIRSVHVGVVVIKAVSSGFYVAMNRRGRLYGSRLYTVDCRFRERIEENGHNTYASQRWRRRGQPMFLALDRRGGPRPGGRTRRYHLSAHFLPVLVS
AF4-AF9 inh: inhibitors of AF4 peptide binding to AF9, primary screen, biochemical, AlphaScreen, biotin-AF4 peptide, FLAG-AF9, single point; inhibition, % at 10 µM; Protein AF-9 (Homo sapiens), P42568; AID 651704, 2012; actives 0.47% (n = 350,000);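 active = every replicate reaching a set inhibition limit, whatever the replicate mean, cut at about 25% in these data; inconclusive = mean inhibition reaches that limit but some replicates miss it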;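 note: 0% = plate neutral control median and 100% = total signal loss; the record names both 10 and 1 µM as test concentration; the first replicate is given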
Target sequence (P42568 whole entry, looked up): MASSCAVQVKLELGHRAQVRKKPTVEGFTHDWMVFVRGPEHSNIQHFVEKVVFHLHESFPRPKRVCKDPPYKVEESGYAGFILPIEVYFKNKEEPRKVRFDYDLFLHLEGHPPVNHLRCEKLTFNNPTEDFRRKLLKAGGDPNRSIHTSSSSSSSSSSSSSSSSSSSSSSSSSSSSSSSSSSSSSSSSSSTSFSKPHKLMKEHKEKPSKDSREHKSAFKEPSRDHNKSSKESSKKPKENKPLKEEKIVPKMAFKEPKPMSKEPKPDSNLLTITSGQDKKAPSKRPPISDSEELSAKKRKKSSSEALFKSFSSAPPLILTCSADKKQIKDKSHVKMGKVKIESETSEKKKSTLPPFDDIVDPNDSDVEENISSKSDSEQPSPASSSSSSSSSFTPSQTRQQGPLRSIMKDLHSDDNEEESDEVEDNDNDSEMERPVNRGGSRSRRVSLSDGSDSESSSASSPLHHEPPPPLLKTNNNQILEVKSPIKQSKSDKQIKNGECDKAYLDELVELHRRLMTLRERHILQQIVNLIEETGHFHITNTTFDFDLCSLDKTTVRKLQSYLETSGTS
rRNA inh HTS OD600: also measured in rRNA inh HTS; calls as there; OD600 change, %; measured here: OD600 growth;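 optical density of the mix in the first replicate; 0 = DMSO median and -100 = no signal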
rRNA inh HTS RFP: further read-out of rRNA inh HTS, marked with its call; RFP signal change, %; measured here: RFP humanized mutant strains;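 first replicate; 0 = DMSO median and -100 = no signal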
* marks the source's active call; other numbers are inactive results; i = inactive; ? = inconclusive; · = not tested or not shown.

cpd	SMILES	UCH37 inh	Ecoli growth	A1 inh	Beta cell apopt	T cruzi inh	rRNA inh HTS	rRNA inh HTS OD600	rRNA inh HTS RFP	FGF22 binding	AF4-AF9 inh
1	CN(C)c1ccc(N/C(N)=N/c2nc(C(F)(F)F)cc(C(F)(F)F)n2)cc1	0.6	0.71	0.0	6	18	-13	-15	-0.1	·	9.2
2	Cc1csc(Sc2nc3c(c(=O)[nH]c(=O)n3C)n2CCCc2ccccc2)n1	5.0	0.75	0.1	3	3	·	·	·	·	·
3	O=S(=O)(Nc1cccc(Cl)c1)c1ccc2oc(=S)[nH]c2c1	3.4	0.66	0.3	·	-4	-47	-47	-8.1	·	-2.8
4	C[C@@H](C(=O)NCc1ccc(S(C)(=O)=O)cc1)[C@H]1C[C@]1(C)[C@H](NC(=O)OCc1ccccc1)c1ccccc1	1.7	·	0.4	6	·	-19	-17	-2.3	i	3.9
5	Cc1ccc2nc(SC(C)C(=O)N3CCOCC3)[nH]c2c1 (stereo not given)	3.1	0.7	0.3	-2	-3	24	1	0.0	·	-0.4
6	COC(CNC(=O)c1cccnc1)OC	-2.7	0.67	0.9	-4	-2	23	22	5.0	i	-4.5
7	CNC(=O)c1cc2cc(Cl)cc(OC)c2oc1=O	1.4	0.74	0.7	-1	-15	·	·	·	·	·
8	O=C(NNC(=O)OCc1ccccc1)OCc1ccccc1	0.3	0.67	·	·	·	-15	-17	-3.1	i	0.5
9	Cc1ccc(S(=O)(=O)N(CC(=O)NCCC2=CCCCC2)Cc2ccccc2F)cc1	5.8	0.78	-0.3	15	39	·	·	·	·	·
10	O=c1c(/C=N/O)c(Nc2ccccc2)nc2ccccn12	·	·	-0.2	-2	7	-20*	-2.6*	-2.0*	i	8.7
11	Cc1cc(OCC(O)CN2CCCC2)cc(C)c1Cl (stereo not given)	2.5	0.66	0.7	·	26	8	-1	2.0	i	0.5
12	CC(C)[C@H](NC(=O)NCCC1=CCCCC1)C(=O)O	1.2	0.71	0.5	-5	-9	12	-3	-7.1	·	·
13	O=C(COC(=O)C1CC(=O)N(C2CCCCC2)C1)c1ccc(F)cc1 (stereo not given)	1.9	0.75	0.0	-13	-1	4	14	1.1	i	-0.9
14	O=C(c1coc2ccc(O)c(CN3CCOCC3)c12)C1CC1	2.1	0.68	-0.3	-6	-8	·	·	·	·	·
15	CCSc1nnc(NC(=O)c2cccs2)s1	6.5	0.72	0.0	1	-2	·	·	·	·	·
16	CCNc1nc(NC(C)C)nc(NS(=O)(=O)c2ccc(N)cc2)n1	1.6	0.64	-0.1	5	?	·	·	·	·	·
17	CCN(CC)S(=O)(=O)c1ccc(N2CCOCC2)c(NC(=O)c2ccco2)c1	0.8	0.63	-0.4	6	·	-9	-15	1.1	i	4.5
18	Cc1cc(N2CCCC(C(=O)Nc3cccc(Cl)c3)C2)n2ncnc2n1 (stereo not given)	-3.0	0.69	-0.4	-1	4	-4	2	-5.3	i	2.2
19	CCCc1nnc(SCC(=O)Nc2nnc(CC)s2)n1CC1CCCO1 (stereo not given)	·	·	0.0	2	1	3	4	0.7	i	-2.2
20	CCCCCC(=C/c1ccccc1)/C=N/Nc1ccc(S(=O)(=O)N2CCOCC2)cc1[N+](=O)[O-]	11	0.74	·	·	·	3	-1	-3.8	i	0.9
21	O=C(CCCc1ccccc1)NCCS(=O)(=O)N1CCN(c2ccccc2F)CC1	5.5	0.71	-0.2	4	-7	2	2	0.2	i	7.6
22	CC(=O)C1=C(C)NC(SCC(=O)Nc2nc3ccccc3s2)=C(C#N)C1c1ccc(Cl)cc1 (stereo not given)	-3.9	0.7	0.0	5	16	2	-9	3.0	·	-2.4
23	O=C(COC(=O)CCSc1ccc(Cl)cc1)Nc1ccc(F)cc1	3.8	0.69	0.2	-8	9	·	·	·	·	·
24	O=C(CCN(CCO)Cc1ccccc1)Nc1ccc(Br)cc1	1.7	0.65	0.0	4	-17	·	·	·	·	·
25	COc1ccc(C2c3[nH]c4ccccc4c3CCN2C(=O)c2cn3ccccc3n2)c(F)c1 (stereo not given)	-0.5	0.71	-0.1	2	30	-4	-8	-0.7	·	7.8
26	O=C(NCc1ccccc1)C12CC3CC(CC(Br)(C3)C1)C2	1.5	0.65	0.7	-11	10	0	7	-1.0	i	0.4
27	COc1cc2[nH]c(=S)n(CCN3CCCCC3C)c(=O)c2cc1OC (stereo not given)	4.6	0.71	1.4	-1	-21	·	·	·	·	·
28	O=C(NCc1ccc(F)cc1)c1cnc2n(c1=O)CCS2	4.6	0.69	0.7	·	-17	8	9	-0.1	i	8.8
29	O=S(=O)(Cc1ccccc1)Oc1ccccc1	-0.3	0.6	0.8	-9	-10	4	9	4.5	i	1.0
30	N#C/C(=C\c1ccc[nH]1)C(=O)NC1CC1	18	0.66	0.4	-2	-8	8	9	-3.3	i	-3.9
31	COc1cccc(N2[C@@H](CC(C)=O)c3ccccc3S2(=O)=O)c1	3.9	·	2.1	-5	8	8	1	-4.8	i	-2.7
32	COc1ccc(CNC(=O)c2cc3c(s2)CN(Cc2ccccc2)C3)cc1	0.6	0.67	-1.1	-2	17	-22*	3.4*	4.5*	i	1.1
33	CCOc1cc(S(=O)(=O)NCCN2CCOCC2)c(C)cc1C	7.0	0.72	0.2	-11	10	·	·	·	·	·
34	O=[N+]([O-])c1cccc(N(CC(O)CN2CCCC2)S(=O)(=O)c2ccccc2)c1 (stereo not given)	-0.2	0.68	0.0	·	-33	0	6	0.2	i	4.6
35	Cc1ccc(NC(=O)Cn2nnc(C(=O)NCc3ccco3)c2N)c(C)c1	5.8	0.67	1.0	·	-8	12	15	-2.6	i	0.5
36	CC(=O)NCC(=O)N(C)C(C(=O)Nc1ccc(C(C)C)cc1)c1ccccc1 (stereo not given)	0.0	0.71	-0.3	-4	-5	·	·	·	·	·
37	CCn1c(-c2nn(-c3ccccc3)ccc2=O)n[nH]c1=S	4.0	0.7	-0.1	-5	19	13	12	2.6	i	-1.5
38	O=S(=O)(Nc1ccc(S(=O)(=O)N2CCCC2)cc1)c1ccc(F)cc1F	-0.5	0.69	-0.8	-4	·	-2	-14	-9.6	i	-1.9
39	C=CCNC(=O)C(C)N1C(=O)c2ccccc2C1=O (stereo not given)	1.2	0.71	0.3	·	2	·	·	·	·	·
40	O=C(NC1CC1)C1=C[C@@H](c2c[nH]c3ccccc23)C[C@@H](OCc2ccc(CO)cc2)O1	-1.4	·	-1.2	0	-1	1	7	1.6	i	7.1
41	O=C(NC1CC(=O)N(c2ccc3c(c2)OCCO3)C1)N1CCC(O)CC1 (stereo not given)	1.5	0.72	0.3	·	-8	9	10	-1.2	i	0.7
42	CCCc1[nH][nH]c(=O)c1C(c1ccccc1)C(C#N)C#N (stereo not given)	3.2	0.69	0.7	-2	-13	·	·	·	·	·
43	CCCCCn1c(CN2CCN(CCO)CC2)nc2c1c(=O)n(C)c(=O)n2C	0.6	0.69	-0.1	-5	-2	1	12	-0.9	i	-7.4
44	CCOC(=O)CSc1n[nH]c(NC(=O)CC)n1	5.3	0.7	-0.6	1	-10	3	9	-1.0	i	-1.3
45	COC(C[C@H](O)CC(=O)[C@@H](C)OCc1ccccc1)OC	-3.3	·	1.9	-10	-4	5	0	16	i	-13
46	COc1ccc(C(C)(C)NC(=O)C2CCC(=O)N(CCCN3CCCC3=O)C2)cc1 (stereo not given)	0.4	0.7	1.0	-5	-3	5	4	1.8	i	-0.1
47	CN(C)CCCN(C(=O)COc1ccc(Cl)cc1)c1nc2ccc(F)cc2s1	4.3	0.68	0.9	-2	54	-23*	1.6*	5.6*	·	11
48	CN(C)CCCNc1ccc(-c2cc(Nc3cccc(Cl)c3)ncn2)cn1	-1.8	0.64	2.3	13	49	-20*	-1.9*	6.2*	i	12
49	COc1ccc(CCNC(=O)C2CCCN2C(=O)Nc2cccc(C(C)=O)c2)cc1OC (stereo not given)	5.2	0.7	-0.5	0	16	·	·	·	·	·
50	CC(=O)Nc1ccc(-c2csc(N/N=C(/C)c3ccccc3)n2)cc1	·	·	-0.1	2	8	-8	5	-1.2	i	7.2
51	CS(=O)(=O)N(Cc1ccc(Cl)cc1)c1ccc(C(=O)NCc2ccccn2)cc1	3.5	0.67	0.8	-8	2	-1	-6	1.0	i	-13
52	O=C(COc1ccccc1Br)NC(=O)NC1CCCC1	0.9	0.61	·	·	·	-16	-15	1.0	·	-1.5
53	COc1ccc(CC(=O)n2[nH]c(=O)cc(C)c2=O)cc1OC	5.3	0.67	1.3	-9	-7	16	6	1.9	i	-10
54	CCc1nnc(NC(=O)C(C)N2C(=O)C3C4C=CC(C4)C3C2=O)s1 (stereo not given)	3.7	0.66	-0.3	-1	-6	·	·	·	·	·
55	O=C(c1cnc(Cl)c(Cl)c1)N1CCN(S(=O)(=O)c2ccc3ccccc3c2)CC1	0.1	0.68	·	·	·	4	6	3.0	i	-6.4
56	O=C(NCCCO)/C(=C\C=C\c1ccccc1)NC(=O)c1ccccc1Cl	5.7	0.68	0.4	-6	3	·	·	·	·	·

Additional compounds follow.
cpd	SMILES	UCH37 inh	Ecoli growth	A1 inh	Beta cell apopt	T cruzi inh	rRNA inh HTS	rRNA inh HTS OD600	rRNA inh HTS RFP	FGF22 binding	AF4-AF9 inh
57	O=C(CSc1nc2ccccc2c(=O)n1Cc1ccc(C(=O)NC2CC2)cc1)NCc1ccco1	2.1	0.71	0.1	6	3	·	·	·	·	·
58	O=C(O)CSc1cc(NS(=O)(=O)c2ccc(Cl)cc2)c2ccccc2c1O	·	·	0.7	9	-2	-31	-43	-7.0	i	-7.2
59	Cc1onc(-c2ccccc2)c1C(=O)Nc1sc2c(c1C(N)=O)CCC2	-2.8	0.7	-0.1	0	24	·	·	·	·	·
60	CSCCC(NC(=O)c1ccccc1Cl)C(=O)N1CCN(c2ccccn2)CC1 (stereo not given)	-1.4	0.75	-1.2	0	-4	13	11	1.0	i	0.3
61	O=C1CCN(c2ncccc2[N+](=O)[O-])CC1	3.0	0.68	-0.7	-2	0	11	9	2.3	i	-0.1
62	Cc1ccc(-n2nnnc2SCC(=O)NC2CCS(=O)(=O)C2)c(C)c1 (stereo not given)	0.4	0.62	·	·	·	2	9	-0.2	i	2.4
63	Cc1cccc(NC(=O)CCS(=O)(=O)c2ccccc2)c1	1.6	0.67	0.7	-3	-6	5	-2	5.3	i	1.8

An excerpt; count on the stated rates, not on these rows.
